Assay outcomes (PubChem BioAssay)
FPR: small-molecule ligands of human FPR – U937-FPR cells, fMLFK-FITC, flow cytometry, primary screen (AID 362) | U937-FPR cells, fMLFK-FITC displacement, flow cytometry; hits give high values; test concentration not given here; most inactive calls were filed without a number and no value below 0 was filed | inhibition, % | 4,300 compounds, 1% hits;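 active = inhibition of labelled peptide binding to the formyl peptide receptor of at least 65%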;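 also: plate controls were buffer control wells for no effect and unlabeled fMLFF blocking peptide for full effect; higher means less cell fluorescence so more probe displaced; part of the set was picked by virtual screening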
The depositor's hits bear a star; i = inactive. The list is partial (hit frequency here may not be typical).

Start of the data: the first three records as a preview:
CCOCCOC(=O)C1=C(C)NC2=C(C(=O)C(C(=O)OC)C(C)C2)C1c1cccc([N+](=O)[O-])c1 (stereo unspecified)
  FPR: 23
CC1(C)CC(=O)C2=C(C1)Nc1[nH]n(-c3ccccc3)c(=O)c1C2c1ccccc1F (stereo unspecified)
  FPR: 56
COc1cc(C2NC(=O)NC(C)=C2C(=O)OCC2CCCCC2)ccc1O (stereo unspecified)
  FPR: i

This part in full, repeating the preview:
CCOCCOC(=O)C1=C(C)NC2=C(C(=O)C(C(=O)OC)C(C)C2)C1c1cccc([N+](=O)[O-])c1 (stereo unspecified)
  FPR: 23
CC1(C)CC(=O)C2=C(C1)Nc1[nH]n(-c3ccccc3)c(=O)c1C2c1ccccc1F (stereo unspecified)
  FPR: 56
COc1cc(C2NC(=O)NC(C)=C2C(=O)OCC2CCCCC2)ccc1O (stereo unspecified)
  FPR: i
CCCOCCOC(=O)C1=C(C)NC2=C(C(=O)C(C(=O)OC)C(C)C2)C1c1ccc(C)cc1 (stereo unspecified)
  FPR: 59
CC(C)Cn1cc(C(=O)NCCC2=CCCCC2)c2c3ccccc3n(C)c2c1=O
  FPR: 5
Cc1cccc(Oc2c(C(F)(F)F)oc3c(CN(C)Cc4ccccc4)c(O)ccc3c2=O)c1
  FPR: i
CC1(C)CC(=O)C=C(N2CCOCC2)C1
  FPR: i
CCCC(C)C1C(C#N)=C(N)OC2=C1C(=O)CCC2 (stereo unspecified)
  FPR: i
COc1cc(C2NC(=O)NC(C)=C2C(=O)OCC(C)C)cc(Cl)c1O (stereo unspecified)
  FPR: i
COc1ccc(Oc2c(C(F)(F)F)oc3cc(OC(C)C(=O)OCCC(C)C)ccc3c2=O)cc1 (stereo unspecified)
  FPR: 8
COc1ccc(CNC(=O)c2cn(CC(C)C)c(=O)c3cc(OC)c(OC)cc23)cc1
  FPR: i
CC1(C)CC(=O)C(C(c2cccc([N+](=O)[O-])c2)C2C(=O)CC(C)(C)CC2=O)C(=O)C1
  FPR: 78*
Cc1ccc(S(=O)(=O)NCCC(=O)Oc2ccc3c4c(c(=O)oc3c2)CCC4)cc1
  FPR: i
CCOc1ccc(CNC(=O)C2CCN(S(=O)(=O)N(CC(C)C)CC(C)C)CC2)cc1OC
  FPR: i
CC1CCc2c(sc(NC(=O)C(C(C)C)N3C(=O)c4ccccc4C3=O)c2C#N)C1 (stereo unspecified)
  FPR: i

CCC(CC)C1C(C#N)=C(N)OC2=C1C(=O)CCC2 (stereo unspecified)
  FPR: i
COc1cc(C2C(C(=O)OC3CCCCC3)=C(C)NC3=C2C(=O)CCC3)ccc1O (stereo unspecified)
  FPR: 9
COc1ccc(C2(CNCC(N)=O)CCCC2)cc1OC
  FPR: i
O=C(Oc1ccc2c3c(c(=O)oc2c1)CCCC3)c1cccs1
  FPR: i
CC1(C)CC(=O)C=C(NCC(=O)O)C1
  FPR: i
CC(=O)Oc1cccc(N2C(=O)C3C(C2=O)C2C=CC3C23CC3)c1 (stereo unspecified)
  FPR: i
COc1cccc(C(C2C(=O)CC(C)(C)CC2=O)C2C(=O)CC(C)(C)CC2=O)c1
  FPR: 53
CC1(C)CC(=O)C2=C(C1)Nc1ncnn1C2c1ccccc1 (stereo unspecified)
  FPR: 16
COc1c(O)ccc(C2Nc3ccc4ccccc4c3C3=C2C(=O)CC(C)(C)C3)c1[N+](=O)[O-] (stereo unspecified)
  FPR: 15
COCCNC(=O)C1CCC(CNS(=O)(=O)c2ccc(F)cc2)CC1 (stereo unspecified)
  FPR: i
COC(=O)C(O)(c1ccc(O)cc1)C(F)(F)F (stereo unspecified)
  FPR: i
CCC(C)OC(=O)C(C)Oc1ccc2c3c(c(=O)oc2c1C)CCC3 (stereo unspecified)
  FPR: i
CCCCC(O)(CCN1CCCCC1)c1ccc(OCC)cc1 (stereo unspecified)
  FPR: 13
CCN(CC)C(=O)c1cn(CC(C)C)c(=O)c2c1c1ccccc1n2C
  FPR: i
CCOC(=O)C1=C(C)NC(C)=C(C(=O)OCC)C1C(=O)O
  FPR: 18

CC(C)C1=CC23CCC4C(C)(C(=O)O)CCCC4(C)C2CC1C1C(=O)N(c2cccc(O)c2)C(=O)C13 (stereo unspecified)
  FPR: 6
CC1CC(C)CN(C(=O)C2CCC(CNS(=O)(=O)c3ccc(Cl)cc3)CC2)C1 (stereo unspecified)
  FPR: 18
CCOC(=O)CN1C(=O)CSc2ccc(S(=O)(=O)N3CCCCCC3)cc21
  FPR: 2
CCSCCOC(=O)C1=C(C)NC2=C(C(=O)C(C(=O)OC)C(C)C2)C1c1ccc(OC(C)=O)cc1 (stereo unspecified)
  FPR: 9
O=c1c2sccc2n(Cc2cc(=O)n3cc(Cl)ccc3n2)c(=O)n1-c1cc(F)ccc1F
  FPR: i
COc1cc2c(C(=O)NCCCOC(C)C)cn(CC(C)C)c(=O)c2cc1OC
  FPR: i
COc1ccc(OC)c(/C=C2\CCCC3=C2Nc2nnnn2C3c2cc(OC)ccc2OC)c1 (stereo unspecified)
  FPR: i
CCCCN(CCCC)Cc1c(O)ccc2c(=O)c(Oc3ccc(OC)cc3)c(C(F)(F)F)oc12
  FPR: i
CC(=O)c1ccc2c(c1)C1C=CCC1C(c1cccc([N+](=O)[O-])c1)N2 (stereo unspecified)
  FPR: i
COc1cccc(-n2c(=O)c3sccc3n(Cc3cc(=O)n4cc(Cl)ccc4n3)c2=O)c1
  FPR: i
CCCCCC(=O)N1c2ccc(OCC)cc2-c2c(ssc2=S)C1(C)C
  FPR: i
Cc1c(N=C2C=C(C(C)C)C(=O)C(C(C)C)=C2)c(=O)n(-c2ccccc2)n1C
  FPR: 12
C/C=C/COC(=O)C1=C(C)NC(=O)NC1c1ccc(OC)cc1 (stereo unspecified)
  FPR: i
COC(=O)C(CC(C)C)Oc1ccc2c(C)cc(=O)oc2c1 (stereo unspecified)
  FPR: i
COC(=O)C1C(=O)C2=C(CC1C)NC(C)=C(C(=O)OCCOC(C)C)C2c1ccc(Cl)cc1 (stereo unspecified)
  FPR: 10

O=C1CCC(C(=O)N(Cc2ccco2)C2(C(=O)NC3CCCC3)CCCCC2)N1 (stereo unspecified)
  FPR: i
CCCOC(=O)C1=C(C)NC2=C(C(=O)C(C(=O)OC)C(C)C2)C1c1ccc(O)c(OC)c1 (stereo unspecified)
  FPR: i
COc1ccc(Oc2ccc3c(c2)c2c4n3CCNC4CCC2)cc1 (stereo unspecified)
  FPR: 17
CCOC(=O)Cn1c(CN2CC(C)CC(C)C2)nc2c1c(=O)n(C)c(=O)n2C (stereo unspecified)
  FPR: i
COc1cc(C2C3=C(Nc4ncnn42)c2ccccc2CC3)cc(OC)c1OC (stereo unspecified)
  FPR: 10
COc1ccc(C2(CNC(=O)Cc3ccccc3)CCCCC2)cc1OC
  FPR: i
Cc1ccccc1C1C(C#N)=C(N)N(c2ncn[nH]2)C2=C1C(=O)CC(C)(C)C2 (stereo unspecified)
  FPR: i
COc1ccc(C2C(C(=O)N3CCC(Cc4ccccc4)CC3)CCC(=O)N2c2ccc(OC)cc2)cc1 (stereo unspecified)
  FPR: 10
CC1(C)COC(=O)C1OC(=O)c1ccccc1C(=O)O (stereo unspecified)
  FPR: i
COc1cc2c(C(=O)NCCC3=CCCCC3)cn(CC(C)C)c(=O)c2cc1OC
  FPR: 20
COc1ccc(N2CCN(CCCNC(=O)Cn3cnc4sc(C)c(S(=O)(=O)N5CCC(C)CC5)c4c3=O)CC2)cc1
  FPR: 6
CCSCCOC(=O)C1=C(C)NC2=C(C(=O)C(C(=O)OC)C(C)C2)C1c1ccccc1 (stereo unspecified)
  FPR: 5
CC(C)C1Nc2c(C(=O)O)cccc2C(Nc2ccccc2C(=O)O)C1(C)C (stereo unspecified)
  FPR: 90*
CC1=CN2C(=NC(=O)CC2(C)C(=O)NCc2ccc3c(c2)OCO3)C=C1 (stereo unspecified)
  FPR: i
CN1CCCc2cc(C#N)c(=O)[nH]c21
  FPR: i

An excerpt of these results, as tab-separated lines.
Molecule	FPR
CCOC(=O)Cn1c(CN2CC(C)CC(C)C2)nc2c1c(=O)n(C)c(=O)n2C (stereo unspecified)	i
CCCOC(=O)C1=C(C)NC2=C(C(=O)C(C(=O)OC)C(C)C2)C1c1ccc(O)c(OC)c1 (stereo unspecified)	i

Other records.
CC1(C)CC(=O)C2=C(C1)OC(N)=C(C#N)C2c1ccc([N+](=O)[O-])cc1 (stereo unspecified)
  FPR: i
O=C(c1ccccn1)N(CC1CCCO1)C1(C(=O)NC2CCCC2)CCCCC1 (stereo unspecified)
  FPR: i
CC(=O)C1C(c2cccnc2)NC(=O)NC1(O)C(F)(F)F (stereo unspecified)
  FPR: 15
O=C(O)C1C2C=CC(C2)C1C(=O)NCc1cccnc1 (stereo unspecified)
  FPR: 26
COc1cccc(NC(=O)CSc2c3c(nc4ccccc24)CCCC3)c1
  FPR: i
COc1ccc2nc3sc(C(=O)N4CCCCCC4)cc3cc2c1
  FPR: i
CC(=O)C1=NN(c2ccccc2)C2(N3CCOCC3)CCCC12 (stereo unspecified)
  FPR: i
C1CCCCCC(NCCN2CCNCC2)CCCCC1
  FPR: i
O=C(O)C12CC3CC(C1)CC(n1cnc([N+](=O)[O-])n1)(C3)C2
  FPR: i
Cc1ccc(C2C(C#N)=C(N)OC3=C2C(=O)CC(C)(C)C3)cc1 (stereo unspecified)
  FPR: i
COC(=O)C1C(=O)C2=C(CC1C)NC(C)=C(C(=O)OCc1ccccc1)C2c1cccc([N+](=O)[O-])c1 (stereo unspecified)
  FPR: 1
N=c1c(C(=O)NCc2ccccc2)cc2c(=O)n3ccccc3nc2n1C1CCCC1
  FPR: i
COC(=O)C1C(=O)C2=C(CC1C)NC(C)=C(C(=O)OC1CCCC1)C2c1ccc(-c2ccccc2)cc1 (stereo unspecified)
  FPR: i
COc1cccc(C2C(C(=O)OC3CCCCC3)=C(C)NC3=C2C(=O)CC(c2ccc(Cl)cc2)C3)c1 (stereo unspecified)
  FPR: 10
CCN1CCN(C(=O)c2cn(C3CCCC3)c(=O)c3c2c2ccccc2n3C)CC1
  FPR: i

CC(=O)C1C(c2ccccc2OC(F)F)NC(=O)NC1(O)C(F)(F)F (stereo unspecified)
  FPR: 12
CCOc1cccc(C2C(C(=O)OC(C)C)=C(C)NC3=C2C(=O)C(C(=O)OC)C(C)C3)c1 (stereo unspecified)
  FPR: 26
CC(C)(C)c1cc(C2C(C#N)=C(N)Oc3n[nH]c(-c4ccc5ccccc5c4)c32)cc(C(C)(C)C)c1O (stereo unspecified)
  FPR: 1
CCCCOC(=O)C1=C(C)NC(=O)NC1c1ccc(OCCC)cc1 (stereo unspecified)
  FPR: i
O=C1C2=C(c3cc(O)ccc3O)CCCN2C(=O)CN1CCc1ccccc1
  FPR: 1
O=C(O)CCNc1c(C(=O)O)cnc2ccccc12
  FPR: 1
COC(=O)C1C(=O)C2=C(CC1C)NC(C)=C(C(=O)OC1CCCCCC1)C2c1ccc(O)c(OC)c1 (stereo unspecified)
  FPR: 1
CCOC(=O)C1C(=O)C=C(c2ccc(C)cc2)CC1c1cccc(OC)c1 (stereo unspecified)
  FPR: 1
CCOC(=O)CSc1nc2ccsc2c(=O)n1CCCCCC(=O)Nc1ccc(OC)cc1
  FPR: i
CCCc1cc2c(=O)c(-c3nc4ccccc4s3)c(C)oc2cc1OC(C)=O
  FPR: i
COc1cc2c(C(=O)NCc3cccs3)cn(CC(C)C)c(=O)c2cc1OC
  FPR: i
CCCCc1cc(=O)oc2cc(OCC(=O)OCC)c(Cl)cc12
  FPR: i
CCOC(=O)c1ccc(-c2c(C(F)(F)F)oc3cc(O)c(CC)cc3c2=O)o1
  FPR: 79*
CCOC(=O)c1cc2c(=O)n3ccccc3nc2n(CC(C)C)c1=NC(=O)c1cc2ccccc2o1
  FPR: 2
CCCCCc1c(C)c(C#N)c2[nH]c3ccccc3n2c1=O
  FPR: 11

Among those listed so far, these have two or more sulfur atoms.
CCOC(=O)CN1C(=O)CSc2ccc(S(=O)(=O)N3CCCCCC3)cc21
  FPR: 2
CCCCCC(=O)N1c2ccc(OCC)cc2-c2c(ssc2=S)C1(C)C
  FPR: i
COc1ccc(N2CCN(CCCNC(=O)Cn3cnc4sc(C)c(S(=O)(=O)N5CCC(C)CC5)c4c3=O)CC2)cc1
  FPR: 6
CCOC(=O)CSc1nc2ccsc2c(=O)n1CCCCCC(=O)Nc1ccc(OC)cc1
  FPR: i

(continued)
COc1cc(C2C3=C(CC(C)(C)CC3=O)OC3=C2C(=O)CC(C)(C)C3)ccc1OCc1ccccc1F
  FPR: 27
O=C(NC1(C(F)(F)F)C(=O)Nc2c1c(=O)[nH]c(=O)n2-c1ccccc1F)c1ccc(Cl)cc1 (stereo unspecified)
  FPR: 20
O=C(Oc1cccc(N2C(=O)C3C4CCC(C4)C3C2=O)c1)c1cccc([N+](=O)[O-])c1 (stereo unspecified)
  FPR: i
CCOc1cc(C2C(C(=O)OCC(C)C)=C(C)NC3=C2C(=O)CC(c2ccc(Cl)cc2)C3)ccc1O (stereo unspecified)
  FPR: i
CCN1CCN(Cc2c(O)ccc3c(=O)c(Oc4cc(C)cc(C)c4)c(C(F)(F)F)oc23)CC1
  FPR: i
COc1cc2c(C(=O)NCCc3ccc(Cl)cc3)cn(CC(C)C)c(=O)c2cc1OC
  FPR: i
COc1ccccc1CNC(=O)c1cn(CC(C)C)c(=O)c2c1c1ccccc1n2C
  FPR: 2
COc1ccc2c(c1)C(C)=CC(C)(C)N2C(=O)C(C)N1C(=O)c2ccccc2C1=O (stereo unspecified)
  FPR: i
CCCCCn1c(SCC(=O)OCC)nc2cc(C(=O)NCc3ccccc3Cl)ccc2c1=O
  FPR: i
COC(=O)C1=C(N)OC2=C(C(=O)CC(C)(C)C2)C1c1ccccc1 (stereo unspecified)
  FPR: i
COc1ccc(CNC(=O)C(NS(=O)(=O)c2ccc3c(c2)CCCN3C(C)=O)C(C)C)cc1 (stereo unspecified)
  FPR: i
O=C(Nc1ccc(F)c(Cl)c1)C1CCC(CNS(=O)(=O)c2cccs2)CC1 (stereo unspecified)
  FPR: i
CCOC(=O)c1cc2c(=O)n3ccccc3nc2n(CC(C)C)c1=NC(=O)COc1ccc(Cl)cc1
  FPR: i
